nsP2pro inh: inhibitors of chikungunya virus nsP2 protease | Q8JUX6 | AID 1964107 | FRET peptide cleavage, nsP2pro, fluorescence 1 h | actives 1.1% (n = 31,000) | Potency, µM (highest dose often 24.9 µM), for inactives: top-dose activity change, negative = inhibition, hits mostly inhibitors; active means well fitted inhibition curve with a large enough effect; inconclusive means small, poorly fitted or top-dose-only effect; inactive means no such curve, though single readings can be large or run the other way; also: nearly all actives have a fitted effect of over 60% in size; a reference inhibitor and vehicle were the controls
Target sequence (Q8JUX6 whole entry, looked up): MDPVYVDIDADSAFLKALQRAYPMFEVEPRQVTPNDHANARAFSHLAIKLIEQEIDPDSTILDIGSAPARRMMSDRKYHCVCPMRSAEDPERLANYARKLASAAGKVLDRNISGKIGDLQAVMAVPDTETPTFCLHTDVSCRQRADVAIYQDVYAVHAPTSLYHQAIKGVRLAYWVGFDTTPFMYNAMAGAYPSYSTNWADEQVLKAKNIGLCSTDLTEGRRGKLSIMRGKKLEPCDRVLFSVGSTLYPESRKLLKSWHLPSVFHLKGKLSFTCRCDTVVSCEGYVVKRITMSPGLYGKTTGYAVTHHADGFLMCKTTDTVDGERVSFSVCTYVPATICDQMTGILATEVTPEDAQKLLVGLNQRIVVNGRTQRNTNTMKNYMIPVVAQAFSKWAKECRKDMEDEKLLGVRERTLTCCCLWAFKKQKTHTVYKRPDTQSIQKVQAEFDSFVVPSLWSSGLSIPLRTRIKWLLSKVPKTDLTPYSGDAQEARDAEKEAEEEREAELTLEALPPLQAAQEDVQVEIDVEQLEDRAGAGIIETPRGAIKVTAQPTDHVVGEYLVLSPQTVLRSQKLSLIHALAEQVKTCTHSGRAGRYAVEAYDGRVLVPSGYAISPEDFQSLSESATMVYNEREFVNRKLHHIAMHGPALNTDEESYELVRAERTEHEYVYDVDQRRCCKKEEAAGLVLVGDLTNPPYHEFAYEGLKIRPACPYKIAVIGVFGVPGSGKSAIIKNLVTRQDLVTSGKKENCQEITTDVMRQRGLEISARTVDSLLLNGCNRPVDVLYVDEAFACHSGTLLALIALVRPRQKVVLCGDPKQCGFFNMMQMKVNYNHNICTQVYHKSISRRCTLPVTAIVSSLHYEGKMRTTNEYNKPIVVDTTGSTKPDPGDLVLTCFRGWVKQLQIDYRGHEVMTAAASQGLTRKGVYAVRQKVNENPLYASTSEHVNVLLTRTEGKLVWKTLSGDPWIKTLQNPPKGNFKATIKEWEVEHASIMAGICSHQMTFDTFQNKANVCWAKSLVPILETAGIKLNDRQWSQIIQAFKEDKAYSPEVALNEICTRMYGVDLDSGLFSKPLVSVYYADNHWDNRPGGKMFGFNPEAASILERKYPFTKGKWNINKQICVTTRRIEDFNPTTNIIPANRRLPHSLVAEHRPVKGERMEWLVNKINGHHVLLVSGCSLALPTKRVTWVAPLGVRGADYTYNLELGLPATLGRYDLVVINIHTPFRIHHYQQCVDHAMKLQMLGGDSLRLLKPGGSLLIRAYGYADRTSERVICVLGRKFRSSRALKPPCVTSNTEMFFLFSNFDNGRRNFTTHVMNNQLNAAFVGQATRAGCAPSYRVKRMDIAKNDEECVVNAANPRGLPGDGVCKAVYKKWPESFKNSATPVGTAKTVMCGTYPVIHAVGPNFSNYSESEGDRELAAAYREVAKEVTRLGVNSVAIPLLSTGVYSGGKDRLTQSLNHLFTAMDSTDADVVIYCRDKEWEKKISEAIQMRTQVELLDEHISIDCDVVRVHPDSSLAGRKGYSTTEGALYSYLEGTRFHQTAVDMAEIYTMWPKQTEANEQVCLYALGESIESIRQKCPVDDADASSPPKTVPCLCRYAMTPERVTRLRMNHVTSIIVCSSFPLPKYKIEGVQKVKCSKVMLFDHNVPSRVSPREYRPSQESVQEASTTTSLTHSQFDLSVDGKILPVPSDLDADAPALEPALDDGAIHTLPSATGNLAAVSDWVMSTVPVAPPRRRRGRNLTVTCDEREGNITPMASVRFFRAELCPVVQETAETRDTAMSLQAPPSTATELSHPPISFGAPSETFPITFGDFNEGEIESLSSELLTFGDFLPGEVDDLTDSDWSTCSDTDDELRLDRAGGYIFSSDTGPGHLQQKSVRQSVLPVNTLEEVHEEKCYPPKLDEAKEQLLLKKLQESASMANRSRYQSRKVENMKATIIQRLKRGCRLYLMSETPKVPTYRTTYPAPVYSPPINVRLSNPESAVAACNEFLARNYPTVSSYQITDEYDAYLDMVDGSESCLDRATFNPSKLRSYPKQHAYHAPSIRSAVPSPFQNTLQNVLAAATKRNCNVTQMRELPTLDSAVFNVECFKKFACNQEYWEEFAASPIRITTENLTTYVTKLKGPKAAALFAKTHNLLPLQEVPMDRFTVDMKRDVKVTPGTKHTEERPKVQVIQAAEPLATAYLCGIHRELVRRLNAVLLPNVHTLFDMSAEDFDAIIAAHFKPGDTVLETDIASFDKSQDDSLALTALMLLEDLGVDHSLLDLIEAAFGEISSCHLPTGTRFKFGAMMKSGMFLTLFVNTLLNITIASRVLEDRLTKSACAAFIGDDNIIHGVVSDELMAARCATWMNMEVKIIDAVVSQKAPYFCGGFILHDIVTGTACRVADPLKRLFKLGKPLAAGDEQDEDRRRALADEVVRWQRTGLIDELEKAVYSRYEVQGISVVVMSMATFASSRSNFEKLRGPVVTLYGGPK
Numbers without * were called inactive; i = inactive; ? = inconclusive; & = joins results of further samples; ! = repeats disagree; [ ] = dose if it differs, or a comment. % is scaled to controls: 0 for no effect and ±100 for the full control effect; potency is read from the fitted curve at half-maximal effect. These rows are one share of the data. The share of hits here may be higher or lower than overall.

SMILES | nsP2pro inh
C=C1C(=O)O[C@@H]2/C=C(/C)[C@@H](OC(C)=O)C/C=C(\C)C[C@@H](OC(=O)/C(=C/CO)CO)[C@@H]12 | -8%[10 µM]
O=S(=O)(NCCc1ccccc1)c1ccc(N2CCCCS2(=O)=O)cc1 | -18%
C=C1CCC[C@]2(C)CC[C@@](O)(C(=C)C(=O)O)C[C@@H]12 | 1%
CC(C)C1=C2[C@H]3CC[C@@H]4[C@@]5(C)CC[C@H](OC(=O)CC(C)(C)C(=O)O)C(C)(C)[C@@H]5CC[C@@]4(C)[C@]3(C)CC[C@@]2([C@@H](O)CN(CCN(C)C)Cc2ccc(Cl)cc2)CC1=O | 1%
CCOCCCNC(=O)NC(CCC(C)C)c1c(-n2cccc2)sc2c1CCN(C)C2 (configuration not stated) | -25%
CCOC(=O)c1cccc(NC(=O)CCCn2c(C)c3cnn(-c4ccccc4)c(=O)c3c2C)c1 | -7%
CCCC[N+]1(C)[C@@H]2CC(OC(=O)[C@H](CO)c3ccccc3)C[C@H]1[C@@H]1O[C@@H]12 (some centres not stated) | -8%&-4%
COCCN1CCCCCC(O)c2cc(C(=O)NCc3ccc(F)cc3)ccc21 (configuration not stated) | i
C=C1CC[C@@H]2[C@](C)(CO)[C@H](O)CC[C@@]2(C)[C@@H]1C/C=C1/C(=O)OCC1O (some centres not stated) | 2%
Cc1ccc(C)c(N2CCN(C(=O)CCS(=O)(=O)c3ccc4c(c3)CC(=O)N4C)CC2)c1 | ?
COc1cc(C(CC(=O)NCCC(C)C)N2Cc3ccccc3C2=O)cc(OC)c1OC (configuration not stated) | -21%
O=C(Cn1c(=O)c2cccn2c2cccnc21)NCc1ccccc1F | -17%
NC(N)=NC(=O)c1nc(Cl)c(N)nc1N | 1%
Cn1cc([C@@H](NC(=O)CCc2ccc(=O)[nH]n2)C2CC(O)C2)cn1 (some centres not stated) | i
CC1CCN(Cc2c(O)ccc3c(=O)c(Oc4ccccc4Cl)c(C(F)(F)F)oc23)CC1 | -21%

Ordered by molecular weight (smallest number first): three of the compounds above
SMILES | nsP2pro inh
C=C1CC[C@@H]2[C@](C)(CO)[C@H](O)CC[C@@]2(C)[C@@H]1C/C=C1/C(=O)OCC1O (some centres not stated) | 2%
C=C1C(=O)O[C@@H]2/C=C(/C)[C@@H](OC(C)=O)C/C=C(\C)C[C@@H](OC(=O)/C(=C/CO)CO)[C@@H]12 | -8%[10 µM]
COc1cc(C(CC(=O)NCCC(C)C)N2Cc3ccccc3C2=O)cc(OC)c1OC (configuration not stated) | -21%

Next section.
SMILES | nsP2pro inh
Oc1cc(Nc2ccccc2)cc2cccnc12 | i
O=C(OC[C@H]1O[C@H](O[C@H]2CO[C@H](CO)[C@@H](O)[C@@H]2O)[C@H](O)[C@@H](O)[C@H]1O)c1ccccc1 | -11%[10 µM]
COc1ccccc1N1CCN(C(=O)c2cn(C)c3ccc(S(=O)(=O)N4CCOCC4)cc3c2=O)CC1 | -14%
O=C(Cn1c(=O)oc2ccccc21)N1CCCC(Cc2noc(-c3ccccc3)n2)C1 (configuration not stated) | -2%
Cc1cccc(C(=O)Nc2cc3c(cc2N2CCCCC2)n(C)c(=O)n3C)c1 | -9%
O=C(O)c1ccc(O)c2ncc(-c3ccc(C(=O)N4CCNCC4)cc3)cc12 | i
NC(=O)NCc1cn(C2CCN(C(=O)C3CCCCCC3)CC2)nn1 | -5%
CC1(C)CCC2(C(=O)OC3OC(CO)C(O)C(O)C3O)CCC3(C)C(=CCC4C5(C)CCC(O)C(C)(C(=O)O)C5CCC43C)C2C1O (configuration not stated) | 94%[activator][10 µM]
CCOc1ccc(Nc2oc(-c3ccc(COc4ccc(C)cc4)o3)nc2C#N)cc1 | -15%
Cc1cc(C(=O)N2C[C@@H](COCC3CC3)[C@H](c3ccccn3)C2)n[nH]1 | 3%
O=C(Nc1ccc(-n2cncn2)c(F)c1)Nc1nnc(-c2ccncc2)s1 | -1%
CC[C@H]1CN(C(=O)N2CCOCC2)CC[C@H]1CC(=O)NCCOC | -3%[39.2 µM]
O=C(OCC#CCSc1nnc(-c2ccccc2F)o1)c1ccc(F)cc1 | -10%
CC(C)NC(=O)C1=CC(c2ccc3c(c2)OCO3)=NS(=O)(=O)N1C | -11%
O=C(Nc1ccc(F)cc1)c1ccc2cc[nH]c2n1 | -3%[39.2 µM]
CCN(CC)S(=O)(=O)c1ccc2c(c1)N(CC(=O)NCCCN1CCN(c3cc(C)ccc3C)CC1)C(=O)CO2 | 2%
CC(C)(C)c1ccc(S(=O)(=O)Nc2ccc(Cl)cc2C(=O)c2cc[n+]([O-])cc2)cc1 | 2%
CCC(O)(C(=O)OCc1ccccc1NC(=O)CCC(=O)O)C(C)O (configuration not stated) | -9%
COC(=O)c1ccc(OC)c(CN2C(=O)N(c3ccc(C(C)=O)cc3)S(=O)(=O)c3ccccc32)c1 | -20%
N#Cc1cccc(CN2CCCC2=O)c1 | 0%
Cc1ccccc1-c1nc(SCC(=O)N(C)c2ccccc2)c2c(=O)n(C)c(=O)n(C)c2n1 | -26%
CCC(CC)c1nn2c(=O)cc(COc3ccc(NC(=O)c4cccc(Cl)c4)cc3)nc2s1 | ?
COc1cc(CNC(=O)c2ccc3c(c2)c(C)c(C)n3Cc2cccc(C)c2)cc(OC)c1OC | -13%
O=C1CCc2cc(S(=O)(=O)Nc3ccccn3)ccc2N1 | -7%
C=CCc1ccc(O)c(-c2cc(CC=C)ccc2O)c1 | ?
Cc1ccc(-n2nc3c(N4CCC(C(=O)N(C)Cc5ccccc5)CC4)nnc(C)c3c2C)cc1 | -14%
CO[C@@H]1[C@@H](O[C@@H]2O[C@H](C)[C@@H](O[C@H]3C[C@@](C)(O)[C@@H](O)[C@H](C)O3)[C@H](N(C)C)[C@H]2O)[C@@H](CC=O)C[C@@H](C)[C@@H](O[C@@H]2CC[C@H](N(C)C)[C@@H](C)O2)/C=C/C=C/C[C@@H](C)OC(=O)C[C@H]1OC(C)=O | 4%
COc1ccc(NC(=O)N[C@H]2[C@H](O)[C@@H](Sc3ccccc3)[C@@H]3OC[C@H]2O3)cc1 | -11%[39.2 µM]
CC(=O)N1CC2(CCCN(C3CCCCC3)C2)Cc2ccccc21 (configuration not stated) | -14%
COC(=O)C1=C2Nc3ccccc3C23CCN2CCCC(C(C)O)(C1)C23 (configuration not stated) | 2%
CCCCOc1ccc(C(=O)Nc2cc(-c3ccc(C)cc3)no2)cc1 | -5%
COc1ccc(OC)c(C2=Nn3c(nnc3-c3ccc(OC)c(OC)c3)SC2)c1 | i
Cc1sc2c(c1C)C(c1ccc(Cl)cc1)=N[C@@H](CC(=O)Nc1ccc(O)cc1)c1nnc(C)n1-2 | ?
CCOc1ccc(CCNC(=O)c2cc(C)nc3c2c(C)nn3-c2cccc(F)c2)cc1 | -20%
CCCN(c1ccc(C(C)C)cc1)S(=O)(=O)c1ccc2c(c1)oc(=O)n2CC(=O)OCC | -20%
CN1CCC(N2CC[C@H](c3nc4ccc(C(F)(F)F)cc4[nH]3)C2)CC1 | i
O=C(Nc1cncc(Cc2ccccc2)c1)c1ccc(-c2cccc([N+](=O)[O-])c2)o1 | -12%
C[C@H](C(=O)NC1CCCC1)N(C(=O)Cn1nnc(-c2ccc3c(c2)OCO3)n1)C1CCCCC1 | 4%
CC(C)C[C@H](NC(=O)CNC(=O)c1cc(Cl)ccc1Cl)B(O)O | ?
C=C1Cc2c(Cl)cc3[nH]c4c5c3c2[C@@]2(O)[C@@H]1C[C@@H]2C(C)(C)O[C@H]5C1CC[C@@]2(O)[C@@]35O[C@@H]3[C@H]3OC(C)(C)[C@H]3O[C@H]5CC[C@]2(C)[C@@]41C (some centres not stated) | 1%[10 µM]
CC(=O)O[C@@H]1[C@@H](OC(=O)/C=C/c2ccccc2)[C@@H](OC(C)=O)[C@H](O[C@H]2[C@@H]3C=CO[C@@H](O[C@@H]4O[C@H](CO)[C@@H](O)[C@H](O)[C@H]4O)[C@@H]3[C@@]3(CO)O[C@@H]23)O[C@H]1C | -25%[10 µM]
Cc1ccc2nc(-c3ccncc3)c(Nc3ccc(C(C)C)cc3)n2c1 | 1%
Cc1ccc(-c2ccc(CNc3nc(-c4ccccc4C(C)C)nc4ccsc34)cc2)cn1 | -3%
COc1ccc(NC(=O)c2ccc3c(c2)n(C)c(=O)c2ccnn23)cc1OC | 5%
CC1=C2C[C@@]3(C)C(CCC[C@@H]3C)C(O)C2(O)OC1=O (some centres not stated) | 11µM*

Gathered by group: the entries above with an aryl methoxy group (7)
SMILES | nsP2pro inh
COc1cc(C(CC(=O)NCCC(C)C)N2Cc3ccccc3C2=O)cc(OC)c1OC (configuration not stated) | -21%
COc1ccccc1N1CCN(C(=O)c2cn(C)c3ccc(S(=O)(=O)N4CCOCC4)cc3c2=O)CC1 | -14%
COC(=O)c1ccc(OC)c(CN2C(=O)N(c3ccc(C(C)=O)cc3)S(=O)(=O)c3ccccc32)c1 | -20%
COc1cc(CNC(=O)c2ccc3c(c2)c(C)c(C)n3Cc2cccc(C)c2)cc(OC)c1OC | -13%
COc1ccc(NC(=O)N[C@H]2[C@H](O)[C@@H](Sc3ccccc3)[C@@H]3OC[C@H]2O3)cc1 | -11%[39.2 µM]
COc1ccc(OC)c(C2=Nn3c(nnc3-c3ccc(OC)c(OC)c3)SC2)c1 | i
COc1ccc(NC(=O)c2ccc3c(c2)n(C)c(=O)c2ccnn23)cc1OC | 5%

Continued.
SMILES | nsP2pro inh
Cc1cn([C@H]2C[C@H](N=[N+]=[N-])[C@@H](CO)O2)c(=O)[nH]c1=O | -17%&-1%
COc1cc(-c2nc(Nc3ccc(F)c(F)c3)c3ccccc3n2)ccn1 | 2%
Nc1scc2c(C(=O)O)nn(-c3ccccc3)c(=O)c12 | -1%
CC(C)NC(=O)c1ccc(-n2c(-c3ccccc3)cc3c2CCCCC3)cc1 | -5%
CS(=O)(=O)c1ccc(CC(=O)N[C@H](c2ccccn2)C2CC(O)C2)cc1 (some centres not stated) | i
O=C(Nc1ccc(-c2ccccc2)cc1)[C@H](Cc1ccc(O[S+](=O)([O-])c2cccc3cnccc23)cc1)N[S+](=O)([O-])c1cccc2cnccc12 | -14%
Cc1cc(C(=O)CN2CCCC2)c(C)n1-c1ccc(F)cc1 | 5.6µM*!
CCn1cc(C(=O)O)c(=O)c2cc(F)c(N3CCNCC3)cc21 | 0%
COc1cccc(-c2cc(C(=O)Nc3ccc(C)cc3)[nH]n2)c1 | -21%
Cn1cccc1C(=O)N1CC[C@H](NC(=O)Nc2ccc(F)cc2F)[C@H]1C(=O)N[C@H](Cc1ccccc1)C(N)=O | 0%
CC1(C)CC[C@]2(C(=O)O[C@@H]3O[C@H](CO)[C@@H](O)[C@H](O)[C@H]3O)CC[C@]3(C)C(=CCC4[C@@]5(C)CC[C@H](O[C@H]6O[C@H](CO)[C@@H](O)[C@H](O[C@@H]7O[C@H](CO)[C@@H](O)[C@H](O)[C@H]7O)[C@H]6O)C(C)(C)C5CC[C@]43C)[C@@H]2C1 (some centres not stated) | ?
Cc1ccc(N2CCN(C(=O)c3cn(C)c4ccc(S(=O)(=O)N(C)C5CCCCC5)cc4c3=O)CC2C)cc1 (configuration not stated) | -15%
C#CCN[C@@H]1CCc2ccccc21 | 4%
COC1=CC(=O)C[C@@H](C)[C@]12Oc1c(Cl)c(OC)cc(OC)c1C2=O | -2%
COc1cccc(-c2nc3cc4c(cc3cc2CN2CCOCC2)OCO4)c1OC | 1%
C[C@H]1CC[C@@]2(OC1)O[C@H]1CC3[C@@H]4CC[C@@H]5C[C@@H](O[C@@H]6O[C@H](CO)[C@@H](O[C@@H]7O[C@H](CO[C@@H]8OC[C@@H](O)[C@H](O)[C@H]8O)[C@@H](O[C@@H]8O[C@H](CO)[C@H](O)[C@H](O)[C@H]8O)[C@H](O)[C@H]7O)[C@H](O)[C@H]6O)CC[C@]5(C)C4CC[C@]3(C)[C@H]1[C@@H]2C (some centres not stated) | 8%[5.1 µM]
CC(=O)Oc1cccc(C)c1 | -6%
C=C1C(=C/C=C2\CCC[C@]3(C)[C@@H]([C@H](C)/C=C/[C@@H](O)C4CC4)CC[C@@H]23)C[C@@H](O)C[C@@H]1O | ?
CC(Nc1nc(-c2ccccc2C(F)(F)F)nc2ccccc12)c1ccc(-c2ccncc2)cc1 (configuration not stated) | 0%
O=C(O)c1cc(-c2ccc(C(F)(F)F)cc2)nc2n[nH]c(-c3ccccc3)c12 | -19%
CCOC(=O)c1c(C)[nH]c(CCC(=O)Nc2ccccc2C(F)(F)F)c1C | -24%
Cc1cn(CC(=O)N2CC[C@@](C)(O)[C@@H](Cc3ccccc3)C2)c(=O)[nH]c1=O | 4%
Cc1cnc(-c2ccccc2C(F)(F)F)nc1NCc1ccc(-c2cccnc2)cc1 | ?
CC1CCN(S(=O)(=O)c2ccc3[nH]cc(C(=O)NCc4ccc(F)cc4)c(=O)c3c2)CC1 | -17%
CC(CN1c2ccccc2Sc2ccccc21)N(C)C (configuration not stated) | 22%&-9%
C#C[C@]1(O)CC[C@H]2[C@@H]3CCC4=C/C(=N/O)CC[C@@H]4[C@H]3CC[C@@]21CC | ?
CC(=O)c1c(C)nn(CCC(=O)N2CCC3(CC2)[C@H](O)C[C@@H]3O)c1C | 0%
COc1ccc([C@@H]2OC[C@H]3[C@@H]2CO[C@@H]3c2ccc(OC3OC(CO)C(O)C(O)C3O)c(OC)c2)cc1OC (some centres not stated) | 3%[10 µM]
Cc1ccc(NS(=O)(=O)c2cc3c(cc2Cl)NC(=O)C3)cc1C | i
CCCCC(=O)N1CCC(C(=O)Nc2ccc([S+](=O)([O-])Nc3nccs3)cc2)CC1 | i
Nc1nonc1C(=Nc1ccc(F)c(Cl)c1)NO | ?
C/C=C1\[C@H](O[C@@H]2O[C@H](CO)[C@@H](O)[C@H](O)[C@H]2O)OC=C2C(=O)OCCc3ccc(O)c(c3)Oc3ccc(cc3)CCOC(=O)C[C@H]21 | 6%[10 µM]
CCn1c(CN2CCOCC2)nc2cc(NC(=O)c3cccc([N+](=O)[O-])c3)ccc21 | -7%
N#CN1CCC[C@@H](n2nc(-c3ccc(Oc4ccc(F)cc4F)cc3)c(C(N)=O)c2N)C1 | ?
COc1cc(/C=C/C(=O)O)ccc1O | 13%
CSc1nccc(N2CCC(c3nccn3Cc3cccnc3)CC2)n1 | i

Compound activity as filed in PubChem.
